KCNQ2 enhance – enhances the rat KCNQ2 potassium channel. O88943. CHO-K1 KCNQ2, FluxOR thallium flux fluorescence; stronger effect = higher value. B-score at 10 µM. 310,000 compounds, 0.54% hits. AID 2239;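 active = fluorescence ratio B-score at least 3 SD of library B-scores, with initial fluorescence B-score within 3 SD, cut at about 5.3 in these data; same plate scores as AID 2156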;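 note: B-score of peak minus minimum over baseline fluorescence ratio after K+ and Tl+ stimulus; positive B-score means potentiation of KCNQ2 with more thallium influx and brighter signal; only the inactives scoring about 0 or higher are listed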
Target sequence (O88943 whole entry, looked up): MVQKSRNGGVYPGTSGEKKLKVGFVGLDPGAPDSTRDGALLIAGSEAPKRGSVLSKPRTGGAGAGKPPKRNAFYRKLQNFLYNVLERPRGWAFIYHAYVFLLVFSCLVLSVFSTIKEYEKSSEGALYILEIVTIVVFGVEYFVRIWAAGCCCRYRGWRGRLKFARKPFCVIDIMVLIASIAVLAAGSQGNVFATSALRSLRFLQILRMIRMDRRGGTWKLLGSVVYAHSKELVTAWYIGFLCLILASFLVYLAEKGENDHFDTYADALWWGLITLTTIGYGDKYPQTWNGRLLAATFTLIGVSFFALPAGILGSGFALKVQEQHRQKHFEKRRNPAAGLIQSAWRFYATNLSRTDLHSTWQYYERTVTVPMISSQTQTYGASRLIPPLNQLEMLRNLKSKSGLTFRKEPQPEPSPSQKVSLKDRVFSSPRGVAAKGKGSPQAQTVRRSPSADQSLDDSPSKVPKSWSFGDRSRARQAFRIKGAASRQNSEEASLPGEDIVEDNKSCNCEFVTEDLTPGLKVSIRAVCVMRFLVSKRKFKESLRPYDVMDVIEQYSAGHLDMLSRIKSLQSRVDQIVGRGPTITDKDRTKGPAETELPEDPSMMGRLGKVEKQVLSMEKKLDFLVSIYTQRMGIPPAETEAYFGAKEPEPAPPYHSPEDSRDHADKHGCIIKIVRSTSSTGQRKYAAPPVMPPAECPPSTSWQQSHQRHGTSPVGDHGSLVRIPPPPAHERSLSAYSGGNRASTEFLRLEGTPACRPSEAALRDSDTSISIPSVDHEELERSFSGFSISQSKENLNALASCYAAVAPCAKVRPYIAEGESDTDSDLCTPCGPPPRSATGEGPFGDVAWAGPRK
KCNQ2 enhance baseline – further read-out of KCNQ2 enhance, marked with its call; B-score; compound at 10 µM; measured here: initial fluorescence intensity artifact check;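 brightness before thallium and not channel activity; 0 = typical well and far values either way flag optical interference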
The depositor's hits bear a star; & = joins results of further samples. Only part of the results is shown, so the mix of outcomes need not match the whole.

SMILES	KCNQ2 enhance	KCNQ2 enhance baseline
COc1cc(NC(=O)C2=C(C)OCCS2)c(Cl)cc1C(=O)NCCN(C)C	0.27	0.08
O=C(CCCN1C(=O)CCC1=O)Nc1ccc(Cl)c(C(F)(F)F)c1	1.3	0.22
CCOc1cc(NC(=O)CCl)c(OCC)cc1NC(C)=O	1.8	0.21
O=C1C(=O)N(CCN2CCOCC2)C(c2ccc([N+](=O)[O-])cc2)/C1=C(/O)c1ccc2c(c1)OCO2 (stereo not given)	0.39	1.1
CC(Sc1nc2ccccc2n1C)C(=O)Nc1ccc(N2CCOCC2)cc1 (stereo not given)	0.05	0.68
O=C(O)/C=C/C(=O)Nc1ccccc1SC(F)(F)C(F)(F)C(F)(F)F	0.87	0.1
COc1ccc(Cn2c(=O)[nH]c3cc(C(=O)NCCCN4CCCCCC4)ccc3c2=O)cc1	1.1	-0.8
COC(=O)c1ccc(NC(=S)NN2CCCCC2c2cccnc2)cc1 (stereo not given)	0.27	-0.31
CCOC(=O)C(=CNc1nc(-c2ccccc2)c(C(=O)Nc2ccc(-c3ccccc3)cc2)s1)C(=O)OCC	1.6	0.23
CC1CCN(S(=O)(=O)c2ccc3[nH]c(=O)cc(C(=O)O)c3c2)CC1	0.98	0.08
Cc1ccc(C(=O)N[C@H](C(=O)OCC(=O)NC2CCS(=O)(=O)C2)C(C)C)cc1 (stereo not given in full)	0.47	-0.14
COC(=O)c1c(NC(=O)c2cccnc2)sc(C(=O)N(C)C)c1C	1.1	0.11
CC(C)Oc1ccc(C2CC(=O)NC2=O)cc1 (stereo not given)	0.3	0.63
COc1ccc(C(=O)N(C)Cc2ccon2)cc1OC1CCN(C(C)C)CC1	0.19	2.1
Nc1c(C(=O)NC2CCCCC2)nsc1C(=O)OCC(=O)NC1CCCCC1	0.71	-0.04
CC(Oc1ccc(Cl)cc1Cl)C(=O)NNC(=O)C(=O)N1CCCCC1 (stereo not given)	0.07	0.21
COc1ccc(-c2noc(COc3ccc4c(c3)OCO4)n2)cc1OC	0.85	-0.55
CC(OC(=O)CN1C(=O)COc2ccccc21)C(=O)NCc1ccc(F)cc1 (stereo not given)	0.08	0.51
Cc1cc2cc(C)c3nnc(SCc4ccccn4)n3c2cc1C	0.76	0.01
O=C(NCCCN1CCOCC1)C1CCC(=O)N1C1CCCCC1 (stereo not given)	0.13	1.8
O=C(O)c1ccc(N/N=C/c2ccc(-c3ccc(Cl)cc3Cl)o2)cc1	1.1	-1.4
CC(C)n1cnnc1SCC(=O)NNC(=O)COc1ccc(Cl)cc1	0.58	-0.1
CCOC(=O)COc1ccc(S(=O)(=O)Nc2ccc3c(c2)OCO3)cc1	1	-0.11
O=C(CN1CCN(c2ncc(C(F)(F)F)cc2Cl)CC1)Nc1ccc2c(c1)OCO2	0.09	1.4
O=C(CN(c1cc(Cl)ccc1Cl)S(=O)(=O)c1ccccc1)N1CCOCC1	0.42	-2.3
O=C(O)c1cccc(-n2cccc2/C=C2/NC(=O)N(Cc3ccccc3F)C2=O)c1	0.01	-0.04
CCCn1c(C)cc(/C=C(\C#N)C(=O)OCC(=O)Nc2ccc(OC)c(Cl)c2)c1C	0.13	1.3
Cc1nc(NC(=O)CSc2nc(N)cc(N)n2)sc1C	0.56	-2.2
Cc1c(NS(=O)(=O)c2ccc3c(c2)c(=O)n(C)c(=O)n3C)c(=O)n(-c2ccccc2)n1C	1.2	1.2
COc1ccc(C2=CSC3=C(C(=O)c4cccc(S(=O)(=O)N(C)C)c4)CCN23)cc1	0.43	0
CN(CC(=O)Nc1ccccc1Cl)C(=O)CSc1nncn1C	0.5	-0.14
COc1cccc(S(=O)(=O)Nc2ccc(C(=O)N3CCOCC3)cc2)c1	1.5	-2.9
O=C(Nc1ccc2ncccc2c1)c1ccccc1Br	2.2	-1.2
O=C(Nc1ccncc1)Nc1ccccn1	0.97	0.12
O=C(CSc1cn(CCNC(=O)c2ccccc2F)c2ccccc12)NCC1CCCO1 (stereo not given)	0.75	0.05
Cc1ccc(OCC(=O)N/N=C\c2ccncc2)c(C)c1	1.9	0
Cc1nnc(NC(=O)c2cc3n(n2)C(C(F)(F)F)CC(C2CC2)N3)s1 (stereo not given)	1.2	-1.5
COC(=O)c1ccc2c(=O)[nH]c(COC(=O)c3c(-c4ccccc4)noc3C)nc2c1	0.04	-2
Cc1ccc(CN(C)C(=O)c2ccc3c(c2)NC(=O)CS3)o1	0.47	-0.27
Cc1cc(C)n2nc(C(=O)N3CCCC(CNS(=O)(=O)c4cccs4)C3)cc2n1 (stereo not given)	0.94	0.36
COc1cc(CN2CCCC(N3CCN(c4ccc(F)cc4)CC3)C2)ccc1F (stereo not given)	0.5	0.01
COc1ccc(C(C)NC(=S)NCc2ccc(F)cc2)cc1 (stereo not given)	1.2	1.3
Nc1ncn(-c2ncc(C(F)(F)F)cc2Cl)n1	0.08	0.15
C=CCn1c(SCC(=O)NCC2CCCO2)nnc1-c1ccccc1 (stereo not given)	2.2	-0.34
N#CC1(NC(=O)COC(=O)c2nc(Cl)c(Cl)c(N)c2Cl)CCCCC1	0.03	2.4
CN(C)S(=O)(=O)c1ccc(NC(=O)Cn2ccsc2=N)cc1	1.2	0.55
CC(=O)c1ccc(Oc2ncnc(N)c2[N+](=O)[O-])cc1	0.06	-1.1
CCOc1nc(NC(=O)NS(=O)(=O)c2cccc(Cl)c2)nc(-c2ccccc2)n1	2.2	-0.55
COc1ccc(NS(=O)(=O)c2ccc3nc(COc4cccc5ccccc45)[nH]c3c2)cc1	0.42	0.28
O=C1NCC(O)=C1C=NC12CC3CC(CC(C3)C1)C2	1.6&1.5	-1.8&-0.68
CCS(=O)(=O)c1ccc(O)c(NC(=O)COc2ccc(OC)cc2)c1	0.21	-0.02
CCOC(=O)CN1C(=O)C(O)=C(C(C)=O)C1c1ccc([N+](=O)[O-])cc1 (stereo not given)	1.2	-1.5
CC1=C(C(=O)Nc2cccc(C(=O)NC3CCCC(C)C3C)c2)SCCO1 (stereo not given)	0.15	1.4
Cc1cc(=O)c2ccccc2s1	0.69	0.3
O=C(CNC(=O)c1cccs1)N/N=C/c1cccc(Br)c1	0.86	-1.1
CCc1nnc(NC(=O)C2CCCN2S(=O)(=O)c2ccc(C)cc2)s1 (stereo not given)	0.83	1.2
Cc1nc2c3ccccc3nc(NNC(=O)CCC(=O)N3CCCC(C)C3)n2n1 (stereo not given)	1.2	-1.2
COc1cc(CCC(=O)Nc2cccc(S(=O)(=O)N(C)C)c2)cc(OC)c1OC	1	-0.41
O=C(CSc1ncc(-c2ccc(F)cc2)[nH]1)NCc1ccco1	1.2	-0.71
O=C(CCN1C(=O)c2cccc3cccc(c23)C1=O)Nc1ccon1	0.98	-0.01

Part of the list above, with values under each structure.
Every second line gives: KCNQ2 enhance | KCNQ2 enhance baseline
- Cc1ccc(CN(C)C(=O)c2ccc3c(c2)NC(=O)CS3)o1
    0.47 | -0.27
- Cc1cc(C)n2nc(C(=O)N3CCCC(CNS(=O)(=O)c4cccs4)C3)cc2n1 (stereo not given)
    0.94 | 0.36
- COc1cc(CN2CCCC(N3CCN(c4ccc(F)cc4)CC3)C2)ccc1F (stereo not given)
    0.5 | 0.01
- COc1ccc(C(C)NC(=S)NCc2ccc(F)cc2)cc1 (stereo not given)
    1.2 | 1.3
- Nc1ncn(-c2ncc(C(F)(F)F)cc2Cl)n1
    0.08 | 0.15
- C=CCn1c(SCC(=O)NCC2CCCO2)nnc1-c1ccccc1 (stereo not given)
    2.2 | -0.34

Later entries.
SMILES	KCNQ2 enhance	KCNQ2 enhance baseline
Cn1c(=O)c2c(nc(Oc3ccccc3)n2C)n(C)c1=O	0.19	-0.4
COc1ccc(CNC(=O)C(=O)NCCCn2ccnc2)cc1	1.3	-0.68
Nn1c(Cc2ccccc2F)nnc1SCn1nnc2ccccc2c1=O	0.9	-0.14
Cc1nc(C)c(C(=O)NNC(=O)Nc2ccc(Cl)cc2)s1	1.3	-1.1
CNC(=S)N/N=C/c1ccccc1Cl	0.4	3.1
COc1ccc(-c2ccc(=O)n(CC(=O)Nc3cccc(O)c3)n2)cc1OC	0.69	-0.9
CC(NC(=O)Cn1cnnn1)c1cccc(C(F)(F)F)c1 (stereo not given)	0.4	0.85
CC(C)Cc1nc(SCC(=O)NCc2ccccc2)n[nH]1	1.2	-1.3
Cc1ccc(S(=O)(=O)N2CCOC23CCN(C(=O)C(=O)NCCC(C)C)CC3)cc1	0.02	-0.28
COc1ccc(C(=O)CSc2ncn[nH]2)cc1OC	2.8	-1.9
O=C(COc1ccccc1)NCC(=O)N/N=C/c1cc(Br)ccc1OCc1ccccc1	0.17	-0.54
COCCn1nnnc1CN1CCOCC1	0.11	1.9
Cc1cccnc1NC(=S)NC(=O)c1cncc(Br)c1	0.2	-0.37
Cc1cccc(C(CC(=O)N2CCCC2)c2ccccc2)c1O (stereo not given)	0.56	-0.81
COc1ccc(/C=N/NC(=S)Nc2ccccc2)cc1COc1ccc(F)cc1	1.3	-1.3
O=C(O)c1ccc(NC2=C(N3CCOCC3)C(=O)c3ccccc3C2=O)cc1	1.3	-0.04
Cc1ccc(S(=O)(=O)NNC(=O)c2ccncc2)cc1[N+](=O)[O-]	0.69	-1.6
COc1ccc(S(=O)(=O)N2CCCCCC2)cc1C(=O)OCC(=O)Nc1cc(C)on1	0.88	-0.01
c1ccc(Cc2c[nH]c3ccccc23)cc1	0.07	-0.35
CC(=O)Nc1cccc(NC(=O)CSc2ccc(-c3ccco3)nn2)c1	0.05	-2.9
CN(C)c1ccc(CN2CCCC(O)C2)cc1 (stereo not given)	0.1	-0.51
CCOc1ccc(CCNC(=O)COC(=O)Cn2cnc3c2c(=O)n(C)c(=O)n3C)cc1OCC	0.55	-2.4
Cc1ccc(C(=O)Nc2cnc3ccccc3c2)cc1	0.84	-0.1
Cc1cc(OC(C)C(=O)N2C[C@H]3C[C@@H](C2)c2cccc(=O)n2C3)c2c(C)c(C)c(=O)oc2c1 (stereo not given in full)	0.81	-1.6
CC(=O)Nc1ccc(S(=O)(=O)NCc2ccc(C(=O)NCc3ccc(Cl)cc3)cc2)cc1	2.4	-1.1
NCCNc1ccc([N+](=O)[O-])c(NC2CC2)c1	0.01	0
CCOCCCNC(=O)C(c1ccc(OC)cc1)N(Cc1ccc2c(c1)OCO2)C(=O)CNC(C)=O (stereo not given)	0.77	0.78
CC1Sc2ccc(S(=O)(=O)CCC(=O)NC3CCCC(C)C3C)cc2NC1=O (stereo not given)	0.8	0.48
CC(C)CCn1c(=O)c2sccc2n2c(CCCC(=O)N3CCC(N4CCCCC4)CC3)nnc12	0.59	1.1
O=c1c2ccccc2nnn1Cc1ccccn1	0.02	0.7

Fetched by compound from the list above, 5 records:
SMILES	KCNQ2 enhance	KCNQ2 enhance baseline
NCCNc1ccc([N+](=O)[O-])c(NC2CC2)c1	0.01	0
CC(=O)Nc1cccc(NC(=O)CSc2ccc(-c3ccco3)nn2)c1	0.05	-2.9
O=c1c2ccccc2nnn1Cc1ccccn1	0.02	0.7
Cc1ccc(S(=O)(=O)NNC(=O)c2ccncc2)cc1[N+](=O)[O-]	0.69	-1.6
c1ccc(Cc2c[nH]c3ccccc23)cc1	0.07	-0.35

Additional compounds
SMILES	KCNQ2 enhance	KCNQ2 enhance baseline
COc1cc([C@@H]2c3cc4c(cc3[C@@H](O)[C@@H](CO)[C@@H]2CO)OCO4)cc(OC)c1O[Si](C)(C)C(C)(C)C	0.08	-0.07
O=C(CCC(=O)N1CCCC1)Nc1nnc(C(F)(F)F)s1	1.2	0.84
O=C(NCCNc1ccc([N+](=O)[O-])cc1)c1ccccc1F	0.55	-1.5
Cc1ccc2oc(=O)c3cnn(CC(=O)N4CCCCC4C)c3c2c1 (stereo not given)	0.47	-0.99
CC(C)c1cccc(OCCCCN(C)C)c1	2.2	-0.93
CC(CCc1ccccc1)N(C)CC(O)c1cccc([N+](=O)[O-])c1 (stereo not given)	0.23	-1.3
COCCNC(=O)c1ccc2c3n(nc2c1)-c1ccc(C)cc1CO3	1.5	0.13
O=C(NC1CCCC1)C(c1cccnc1)N(C(=O)c1csnn1)c1ccccc1Cl (stereo not given)	0.77	1.1
CC(=O)N1CCN(CCN=CC2=C(O)CC(c3ccc(Cl)cc3)CC2=O)CC1 (stereo not given)	0.07	-1.2
COc1cc(C=NCC2OCCc3ccccc32)cc(OC)c1 (stereo not given)	0.01	0.29
CCc1ccc(CC)c(S(=O)(=O)Nc2ccc(O)c(C(=O)O)c2)c1	1.2	0.09
CCOC(=O)N1CCC(C(=O)NNC(=O)c2ccc(Cl)cc2Cl)CC1	0.08	-1.8
Cc1cc(C)cc(C(=O)N2CC(C)SC2=Nc2cccc(S(=O)(=O)N(C)C)c2)c1 (stereo not given)	0.02	-0.72
Cc1occc1C(=O)O/N=C(\N)c1ccc(Cl)cc1	1	1
Cc1c(CCC(=O)NCCC(=O)O)c(=O)oc2cc3occ(-c4ccccc4)c3cc12	0.57	0.26
COC(=O)c1cccc(S(=O)(=O)N2CCC(n3nnc4cc(F)ccc43)CC2)c1	1.6	-0.94
COc1cccc(CN(C)CC(=O)NCc2ccc(F)cc2)c1OC	2.5	-1.5
CCCCn1c(CN2CCN(C(=O)c3ccco3)CC2)nc2c1c(=O)n(C)c(=O)n2C	0.54	-0.68
O=S(=O)(Nc1ccc(N2CCCCC2)cc1)c1ccc(F)cc1	2.5	-2.9
COc1cccc(NC(=O)c2cccnc2)c1	0.04	0.38
CCn1c(SCc2nc3ccccc3c(=O)[nH]2)nnc1C(C)NC(=O)c1ccccc1F (stereo not given)	1.7	-1.1
COc1ccc(OCC(=O)N2CCC3(CC2)CC(=O)c2ccccc2O3)cc1	0.21	0.02
CCOc1ccc(-c2ccc(SCC(=O)N3CCOCC3)nn2)cc1	1.2	-0.57
